# Marburg entry inh: Marburg virus entry inhibition | Marburg virus pseudotyped entry inhibition, cell reporter; control for the full effect not named in the record; about a third of the inactives were read at about 46 µM | Potency, µM (highest dose often 37.8 µM), for the others: top-dose activity change, negative = inhibition, usual class: inhibitors | 300,000 tested, 1.8% active | AID 540276; active = well fitted inhibition curve with a large enough effect; inconclusive = small, poorly fitted or top-dose-only effect, or effect the other way; inactive = flat fitted curve, though single readings scatter; tested in HEK293 cells; about a fifth of its hits are not listed in these tables; further: on the % scale 0 is the no-effect control and ±100 the full control effect; luciferase read-out
# SARS PLP yeast: blocks SARS-CoV papain-like protease in a yeast assay; Potency, µM (top dose mostly 32.9 µM), for the others: at the top dose activity, positive = growth rescue; S. cerevisiae expressing SARS-CoV PLpro, growth rescue; control for the full effect not named in the record; 330,000 tested, 0.19% active; AID 485353; further: 0% is about no effect; nearly all actives have a fitted effect of over 55% in size; growth read by luminescence after 48 h
# Cruzain Triton: blocks cruzain activity in presence of Triton detergent; P25779; purified cruzain, Z-FR-AMC fluorescence, 0.01% Triton; Potency, µM, for the others: max response, negative = inhibition, hits mostly inhibitors; 200,000 tested, 0.43% active; AID 1478; active means well fitted curve in the direction sought with a large enough effect; inconclusive means small, poorly fitted or top-dose-only effect, or another doubt; inactive means no such curve, though single readings can be large; an effect the other way counts as inactive or inconclusive;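 further: plate controls were neutral wells for no effect and buffer without enzyme for full effect; nearly all actives have a fitted effect of over 40% in size; top concentration of the series not given in the record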
# Target sequence (P25779 123-467 limits assumed): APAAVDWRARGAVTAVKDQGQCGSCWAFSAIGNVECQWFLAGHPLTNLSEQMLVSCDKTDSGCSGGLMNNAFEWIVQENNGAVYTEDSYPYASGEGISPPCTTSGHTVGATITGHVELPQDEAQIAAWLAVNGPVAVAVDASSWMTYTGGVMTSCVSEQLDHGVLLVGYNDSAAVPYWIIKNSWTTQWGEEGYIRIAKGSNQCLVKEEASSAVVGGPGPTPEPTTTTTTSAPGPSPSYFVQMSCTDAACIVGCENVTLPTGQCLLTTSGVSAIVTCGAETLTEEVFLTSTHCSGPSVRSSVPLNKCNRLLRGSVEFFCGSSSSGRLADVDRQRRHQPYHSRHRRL
#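 Cruzain (1.5 nM) preincubated 15 min at RT with compound in 100 mM sodium acetate pH 5.5, 5 mM DTT, 0.01% Triton X-100. Reaction started with 2 uM Z-FR-AMC; AMC fluorescence (ex 360/em 450 nm) change over 60 s gave rate.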
# RE007 growth inh: less growth of the S. pombe RE007 Vpr strain | S. pombe RE007 Vpr strain, BacTiter-Glo ATP luminescence, 24 h; control for the full effect not named in the record | Potency, µM (series often up to 92.2 µM), for inactives: at the top dose activity change, negative = less growth | 360,000 tested, 0.21% active; active = well fitted falling curve with a large enough effect; inconclusive = small, poorly fitted or top-dose-only effect; inactive = no such curve, though single readings can be large or run the other way;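 further: on the % scale 0 is the no-effect control and ±100 the full control effect; nearly all actives have a fitted effect of over 50% in size; the assay follows cell death caused by Vpr and the record does not say whether a fall means rescue or toxicity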
#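 Fission yeast strain RE007, carrying one chromosomally integrated HIV-1 vpr copy, was seeded at OD 0.01 in PMG+AL medium with 23 nL pinned compound. After 24 h at 30 °C and 99% humidity, viability was read by BacTiter-Glo luminescence.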
# NS1 function inh: inhibitors of influenza NS1 protein function; S. cerevisiae slowed by influenza A NS1, growth recovery by OD600; Potency, µM (highest dose often 46.1 µM), inactives show at the top dose activity, positive = more growth; 270,000 tested, 0.4% active; further: actives are rising curves; nearly all actives have a fitted effect of over 50% in size
#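 Read-out: OD600 growth recovery of NS1-expressing budding yeast. Cells grown overnight at 30C in -URA glucose medium, washed, resuspended and diluted 1:100 in 2% galactose assay medium, pH 6.0. Same strain lacking NS1 served as positive control.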
# Cruzain noTriton: cruzain (T. cruzi) inhibition without detergent; purified cruzain, Z-FR-AMC fluorescence, no detergent; Potency, µM, for the others: max response, negative = inhibition, usual class: inhibitors; 200,000 tested, 2.3% active; AID 1476; active means well fitted curve in the direction sought with a large enough effect; inconclusive means small, poorly fitted or top-dose-only effect, or another doubt; inactive means no such curve, though single readings can be large; an effect the other way counts as inactive or inconclusive;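 further: plate controls were enzyme without inhibitor for no effect and buffer without enzyme for full effect; nearly all actives have a fitted effect of over 40% in size; top concentration of the series not given in the record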
#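 Purified cruzain at 1.5 nM, pre-incubated 15 min with compound at room temperature in 100 mM sodium acetate pH 5.5, 5 mM DTT, 0.00005% Triton X-100. Reaction started with 2 uM Z-FR-AMC; AMC fluorescence increase over 60 s gives rate.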
# StopGo reporter: FMDV 2A StopGo reporter, luciferase signal; Potency, µM (titrated, usually from 57.9 µM), for the others: at the highest dose signal change, negative = less light; human cells with a luciferase reporter of 2A StopGo recoding; control for the full effect not named in the record; 410,000 tested, 1.2% active; active = well fitted falling curve with a large enough effect; inconclusive = small, poorly fitted or top-dose-only effect; inactive = no such curve, though single readings can be large or run the other way; tested in HEK293T cells; further: on the % scale 0 is the no-effect control and ±100 the full control effect; nearly all actives have a fitted effect of over 45% in size; luciferase light after 4 h
# LASV entry inh: Lassa virus entry inhibition | Potency, µM (top dose mostly 37.9 µM), for inactives: at the top dose activity change, negative = inhibition, most hits filed as inhibitors | Lassa virus pseudotype entry inhibition, cell reporter; control for the full effect not named in the record | 300,000 tested, 1.2% active; active means well fitted inhibition curve with a large enough effect; inconclusive means small, poorly fitted or top-dose-only effect, or effect the other way; inactive means flat fitted curve, though single readings scatter; tested in HEK293 cells; further: on the % scale 0 is the no-effect control and ±100 the full control effect; nearly all actives have a fitted effect of over 50% in size; luciferase read-out
# Numbers without * were called inactive; u = inconclusive; x = not tested or not shown; & = joins results of further samples; [ ] = another dose, or the depositor's remark. Unless noted, the call rests on the fitted dose curve; in most records, active means well fitted rising curve with a large enough effect; inconclusive means small, poorly fitted or top-dose-only effect; inactive means no such curve, though single readings can be large or run the other way. Potency means the concentration at half of the fitted maximal effect.
SMILES	NS1 function inh	StopGo reporter	RE007 growth inh	Marburg entry inh	SARS PLP yeast	LASV entry inh	Cruzain Triton	Cruzain noTriton
Nc1ncnc(Nc2c(F)cccc2F)n1	-1%	-8%	2%	u	-1%	10%	x	x
Cn1c(=O)c(=O)n(C)c2cc(S(=O)(=O)Nc3ccc(Cl)c(C(F)(F)F)c3)ccc21	x	52%[activator]	x	-3%[46.1 µM]	x	25%[46.1 µM]	-0.8%	-14%
CCc1cc2c(cc3c(=O)n(CC(=O)NC4CCCCC4)nc(CC)n32)s1	x	18%	x	-16%[46.1 µM]	x	x	-0.1%	-8%
CCCCCCOc1cccc(N)c1	4%	33%[activator]	1%	-2%	-1%	21%	-4.6%	-3%
CCN(CC)C(=N)/C(C#N)=N/Nc1ccc(C)cc1	-1%	38%[activator]	-19%	u	0%	u	x	x
Cc1ccc(CN2CCC(n3nccc3NC(=O)CCCc3ccccc3)CC2)o1	-4%	0%	-3%	8%	3%	3%	x	x
CC(C)CN(C(=O)COC(=O)c1cccn1C)c1c(N)n(Cc2ccccc2)c(=O)[nH]c1=O	1%	-16%	5%	14%	-2%	-3%	x	x
COc1cc(NC(=S)NCCc2c[nH]c3ccccc23)c(OC)cc1Cl	16%	0%	8%	u	8%	u	-13%	-17%
C/C(Cn1cnc([N+](=O)[O-])n1)=N/NC(=O)COc1c(Cl)cc(Cl)cc1Cl	4%	-18%	-2%	11%	-6%	2%	-4.2%	16%
COC(=O)c1cn(N(C)c2ncc(C(F)(F)F)cc2Cl)c(=O)c2ccccc12	-6%	-22%	6%	-2%	-5%	u	-0.5%	6%
C=CCS(=O)(=O)N1CCCC(Cc2ccccc2C)(C(=O)OCC)C1 (centres undefined)	10%	0%	3%	x	-1%	x	x	x
CC(C)OCCCNC(=O)C(=O)Nc1ccc2nc3n(c(=O)c2c1)CCCCC3	x	-15%	x	13%[46.1 µM]	x	16%[46.1 µM]	-5.0%	3%
CCCN(CCC)c1ncnc2nc[nH]c12	-13%	-16%	-7%	x	-20%	x	0.9%	8%
CCOC(=O)C1(C(F)(F)F)N=C(C(F)(F)F)Nc2ccccc21 (centres undefined)	u	x	1%	4%	-17%	0%	-6.4%	0%
COc1ccc(OC)c(NC(=O)C(=S)NC2CCCCC2)c1	-8%	4%	-1%	-27%[46.1 µM]	-3%	7%[46.1 µM]	x	x
CCOc1ccccc1N1CCN(Cc2cccc(OC)c2OC)CC1	3%	-26%	-6%	-11%	15%	4%	5.9%	7%
CCCC(C(=O)O)N1C(=O)/C(=C/c2cccn2C)SC1=S (centres undefined)	u	0%	-7%	4%	u	-8%	-20%	-3%
CC(c1n[nH]c(=S)n1Cc1ccccc1)N(C)C (centres undefined)	x	-6%	-26%	-12%	-1%	8%	x	x
COC(=O)CN1C(=O)C2(C(C(=O)OC)=C(N)Oc3ccccc32)C2=C1CC(C)(C)CC2=O (centres undefined)	-27%	-11%	9%	17%	-3%	18%	1.6%	14%
COc1cc(-c2cc(C(=O)N3CCN(c4ccccn4)CC3)c3ccccc3n2)cc(OC)c1OC	-37%	u	-8%	u	-1%	-24%	-13%	u
O=C(CCc1nnc(C2CCCCC2)o1)N1CCCCC1CCn1cccn1 (centres undefined)	-2%	13%	-9%	3%[46.1 µM]	-2%	u	x	x
CCOC(=O)N1CCN(c2ccccc2OC)CC1	0%	2%	2%	-17%	-2%	18%	x	x
CCC(Sc1n[nH]c(=O)[nH]c1=O)C(=O)OCc1ccccc1 (centres undefined)	9%	1.8µM*	28%	10%	13%	12%	-2.8%	-2%
CCc1nnc(NS(=O)(=O)c2ccc(NC(=S)NC(=O)/C=C/c3ccc(OC)cc3)cc2)s1	3%	u	5%	-16%	u	-7%	22µM*	-17%
COc1cc(S(=O)(=O)NCCCn2ccnc2)ccc1Cl	10%	28%	-4%	x	4%	x	x	x
CCc1ccc(NC(=O)C2=CC(c3cccs3)=NS(=O)(=O)N2C)cc1	12%	-17%&-19%	-10%	-19%[46.1 µM]	13%	-18%[46.1 µM]	-6.5%	21%
O=C(c1c(O)c2ccccc2oc1=O)C1CCCCC1	-137%	-18%	u	-6%	-25%	-1%	-3.7%	-4%
Cc1ccc(O)c(C2=Nc3ccccc3N=C(c3cccs3)C2)c1	9%	0%	-3%	-18%	-14%	-6%	-5.7%	u
CCOC(=O)Cc1nn(CCc2ccccn2)c(=O)c2ccccc12	-4%	-12%	13%	0%	-5%	1%	2.8%	13%
O=c1[nH]c(=S)[nH]c(O)c1N=Nc1cccc(S(=O)(=O)N2CCOCC2)c1	9%	-2%	-4%	x	-2%	x	x	x
COCC1CCCCN1C(=O)c1ccc2nc(Cc3ccc(OC)c(OC)c3)oc2c1 (centres undefined)	-7%	-28%	4%	x	-2%	x	x	x
COc1ccccc1C1(O)C(=O)Nc2ccccc21 (centres undefined)	7%	-11%	-1%	24%[46.1 µM]	-1%	24%[46.1 µM]	x	x
C=CCn1nc([N+](=O)[O-])nc1Sc1cccc2cccnc12	-18%	u	u	u	-1%	u	5.9%	15%
NC(=O)CC(NC(=O)c1cccc(Br)c1)c1ccc(N2CCC(Br)CC2)c([N+](=O)[O-])c1 (centres undefined)	21%	0%	5%	x	1%	x	x	x
O=C(NCC(c1ccco1)S(=O)(=O)c1cccs1)c1c(F)cccc1F (centres undefined)	x	9%	x	x	x	-8%[46.1 µM]	-0.6%	-1%
c1ccc(-c2c[n+]3c(n2-c2ccccc2)CCC3)cc1	7%	u	-14%	x	1%	x	x	x
CCOC(=O)c1cnc(SC)nc1N	-8%	13%	-25%	29%	-1%	11%	-2.5%	8%
O=C(COc1ccccc1)NCC(=O)N/N=C/C=C/c1ccccc1	9%	-14%	3%	1%	4%	10%	1.8%	-23%
N#Cc1nc(COc2ccc(F)cc2)oc1NCCCn1ccnc1	-5%	-3%	-2%	14%[46.1 µM]	7%	4%	3.9%	-1%
C=Cn1cc[n+](CC(=O)C(C)(C)C)c1	9%	-10%	-6%	8%	5%	-2%	-3.9%	2%
O=C(COC(=O)c1ccc2c(c1)OCCO2)Nc1cc(S(=O)(=O)N2CCOCC2)ccc1Cl	x	-13%	-13%	-3%[46.1 µM]	-2%	19%[46.1 µM]	x	x
CCOC(=O)c1cc(OC(=O)c2ccccc2Br)n(-c2ccccc2)n1	14%	0%	2%	-1%	30%	-17%	-0.5%	4%
CCOC(=O)c1cc2sccc2n1CC(=O)N1CCCC1	-4%	x	-2%	2%	9%	12%	5.9%	4%
O=C(N1CCCCC1)N1CCN(C(c2ccccc2)c2ccccc2)CC1	-21%	u	16%	0%	-12%	-8%	0.9%	11%
CCCCc1nc2ccccc2c(=O)n1-c1ccc(O)cc1	-8%	u	26%	-7%	1%	0%	0.7%	-5%
C=C(C)COc1ccc(-c2nc(N)nc(C)c2-c2ccc(OC)cc2)c(O)c1	-10%	-13%	-4%	u	-1%	u	-8.0%	3%
CC(CNCC1CCCO1)COc1cccc2ccccc12 (centres undefined)	5%	-11%	-2%	u	-1%	-10%	2.2%	2%
Cc1ccc(CNC(=O)CCNS(=O)(=O)c2ccc3c(c2)CCCC(=O)N3)cc1	x	-19%	x	x	x	21%[46.1 µM]	-0.6%	-10%
O=C(Nc1ccc(N2CCOCC2)c(Cl)c1)c1ccc(Br)o1	-39%	-7%	-5%	-10%	-28%	u	0.1%	-1%
COc1ccc(-n2c(N)c(C(=O)NCc3ccco3)c3nc4ccccc4nc32)c(OC)c1	u	u	-7%	u	-7%	-26%	-7.3%	u
O=C(Nc1ccc(Oc2ccccc2)cc1)C1CC1	x	13%	6%	u	-5%	-17%	x	x
CC(=O)c1cccc(NC(=O)COc2ccccc2C(=O)c2cc(C#N)c(=O)n(C3CCCCC3)c2)c1	0%	0%	-8%	u	15%	3%	-7.9%	-10%
CC1(C)O[C@@H]2C[C@H]3[C@@H]4C[C@H](F)C5=CC(=O)CC[C@]5(C)[C@H]4[C@@H](O)C[C@]3(C)[C@]2(C(=O)CO)O1	-6%	0%	6%[18.4 µM]	-2%	-1%	5%	-4.8%	-3%
O=C(CO)N/N=C/c1ccc(Cl)cc1	7%	6%	8%	2%	7%	24%[14.3 µM]	6.7%	-3%
CCOC(=O)c1nnn(-c2nonc2N)c1CN(C)Cc1ccccc1	-9%	-10%	-12%	19%	-1%	3%	2.7%	9%
CCc1ccc(N2C(=O)Nc3ccccc3C2(O)C(=O)N2CCN(c3ccccn3)CC2)cc1 (centres undefined)	x	31%[activator]	-17%	-11%[46.1 µM]	-4%	x	x	x

# (next part)
SMILES	NS1 function inh	StopGo reporter	RE007 growth inh	Marburg entry inh	SARS PLP yeast	LASV entry inh	Cruzain Triton	Cruzain noTriton
CC(C)Cn1c(-c2ccc(Br)cc2)c[nH]c1=S	x	0%	17%	-1%[46.1 µM]	5%	-24%[46.1 µM]	x	x
CC(C)CC(=O)Nc1cccc(NC(=O)CC(C)C)n1	-7%	-10%	-16%	u	11%	5%	-3.0%	-7%
COc1ccc2c(c1)C=C(CN1CCN(C3CCCC3)C(CCO)C1)CO2 (centres undefined)	3%	-1%	3%	u	-1%	x	x	x
COc1cccc(OCC(=O)Nc2cc(Cl)ccc2Oc2ccccc2)c1	-3%	u	-6%	u	26%	-5%	-3.8%	-15%
CC1=CC(C)C2(COC(c3ccc[n+](C)c3)OC2)C(C)C1 (centres undefined)	6%	0%	-9%	x	-1%	x	x	x
CCC(c1nnc(SCC(=O)NC2CCCCC2)n1Cc1ccccc1)N(C)C (centres undefined)	x	-12%	0%	2%[46.1 µM]	x	u	x	x
COCCNC(=O)C(c1ccc(C)cc1)N(C(=O)CCC(=O)Nc1ccccn1)C1CCCCC1 (centres undefined)	-3%	-13%	26%	-1%[46.1 µM]	4%	-8%	x	x
